TSHR agonist = agonists of human thyroid stimulating hormone receptor. hit rate 0.48% among 73,000. HEK293-CNG-TSHR cells (CNG channel as cAMP sensor), membrane potential dye, cAMP. Potency, µM (top dose mostly 57.1 µM), for the others: at the highest dose activation, usual class: activators; active = well fitted activation curve of enough size with the parental cells flat; inconclusive = any curve in the parental cells; inactive = parental cells flat and receptor cells flat or falling; further: potency means the concentration at half of the fitted maximal effect; % of control where 0% means no effect; weak receptor curves with flat parental cells got no call and are not listed
Target sequence (P16473 whole entry, looked up): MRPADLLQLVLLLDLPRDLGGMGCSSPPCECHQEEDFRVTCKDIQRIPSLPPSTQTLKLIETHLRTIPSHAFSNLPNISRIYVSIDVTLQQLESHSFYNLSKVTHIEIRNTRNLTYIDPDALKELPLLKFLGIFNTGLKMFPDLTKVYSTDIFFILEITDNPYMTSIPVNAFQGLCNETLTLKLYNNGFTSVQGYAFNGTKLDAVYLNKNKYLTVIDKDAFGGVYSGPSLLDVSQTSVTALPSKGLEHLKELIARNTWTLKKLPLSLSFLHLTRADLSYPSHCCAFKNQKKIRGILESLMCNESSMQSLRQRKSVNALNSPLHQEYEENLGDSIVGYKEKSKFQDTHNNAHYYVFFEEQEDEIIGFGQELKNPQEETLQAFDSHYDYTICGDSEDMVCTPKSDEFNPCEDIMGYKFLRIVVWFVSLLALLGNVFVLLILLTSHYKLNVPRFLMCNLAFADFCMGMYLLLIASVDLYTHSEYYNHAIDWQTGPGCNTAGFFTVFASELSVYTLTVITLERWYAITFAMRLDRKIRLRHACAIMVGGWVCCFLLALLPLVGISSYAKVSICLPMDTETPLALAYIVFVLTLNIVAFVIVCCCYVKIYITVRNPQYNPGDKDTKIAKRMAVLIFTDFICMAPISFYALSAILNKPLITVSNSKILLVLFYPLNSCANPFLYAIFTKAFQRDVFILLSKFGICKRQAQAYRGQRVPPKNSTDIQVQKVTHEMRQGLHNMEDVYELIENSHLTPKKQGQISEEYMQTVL
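HEK 293 cells stably expressing TSHR and a cAMP-gated CNG channel; parental CNG-only cells as counterscreen. Cells preloaded 60 min with membrane potential dye plus 100 uM RO 20-1724, then compound 30 min; fluorescence read at 590 nm.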
A647 autofl = compound autofluorescence in A647 spectral region; Compound fluorescence, A647 channel (570/671 nm), Tris buffer; max dye-equivalent concentration, M; 59,000 tested, under 10 active; active means above 1 µM dye equivalent; inconclusive means 0.1 to 1 µM; inactive means 0.1 µM or less;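 further: values scaled relative to a standard on each plate; highest value over a series up to 38 µM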
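Tris 100 mM pH 8.0; cpd + A647 stds pin-transferred; 15 min RT; CCD imager, ex 570/em 671. Output = A647-equivalent conc. per cpd conc.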
AID923 = qHTS Assay for Allosteric/Competitive Inhibitors of Caspase-1: Spectroscopic Profiling in AFC Spectral Region; hit rate 1.1% among 75,000; Potency, µM (doses to about 57.5 µM), without a hit: top-dose fluorescence increase, hits mostly activators; compound fluorescence, AFC spectral region (405/520 nm); almost no hit is shown here; active means well fitted activation curve with a large enough effect; inconclusive means small, poorly fitted or top-dose-only effect;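 further: potency means the concentration at half of the fitted maximal effect; 0% is about no effect; scaled to a free AFC standard on each plate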
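Titrations up to 57 uM read every 20 sec for 3 min (405/520 nm) with 50 nM caspase 1 and 5 uM Ac-WEHD-AFC, pH 7.5 HEPES buffer. Fluorescence-vs-time intercept gave baseline, scaled against on-plate AFC standard.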
A488 autofl = A488 region autofluorescence; max dye equivalency, M; compound autofluorescence, A488 spectral region, dye equivalency; hits give high values; hit rate 0.1% among 59,000; active = above 10 nM dye equivalent; inconclusive = 1 to 10 nM; inactive = 1 nM or less; about half of its hits are not listed in these tables;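 further: highest value over a series up to 38 µM; compound alone in buffer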
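Spectroscopic profiling in the A488 region: compounds in pH 8.0 Tris (100 mM), 15 min RT, CCD imaging with 480 nm excitation and 540 nm emission; responses normalized against A488 dye standards.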
Resorufin autofl = compound fluoresces in the resorufin spectral region. Compound fluorescence, resorufin region 547/598 nm, buffer; hits give high values. max dye-equivalent concentration, M. AID 588. hit rate 0.04% among 59,000; active = above 10 nM dye equivalent; inconclusive = 1 to 10 nM; inactive = 1 nM or less; a few of its hits are not listed in these tables; further: highest value over a series up to 38 µM
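Read-out: intrinsic compound fluorescence at ex 547/em 598 nm after 15 min at RT in pH 8.0 Tris (100 mM). Values expressed as resorufin-equivalent concentration from per-plate standard series.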
* hit, by the source's call; i = inactive; ? = inconclusive; · = not tested or not shown; [ ] = remark or other dose. The list is partial; rates above refer to the full screens.

SMILES | TSHR agonist | A647 autofl | AID923 | A488 autofl | Resorufin autofl
CCOC(=O)C1=C(C)N=C2SC(C)C(=O)N2C1c1ccc(OC(C)=O)c(OCC)c1 (configuration not stated) | 4.6% | 1e-09 | 2.8% | i | i
Cc1ccccc1-n1nnnc1SCC(N)=O | -1.5% | 1e-09 | -0.6% | i | i
COc1ccc(OC)c(NC(=O)C2CCN(S(=O)(=O)c3cccs3)CC2)c1 | 11.3% | 1e-09 | -0.3% | i | i
CCOC(=O)CSC1=C(C#N)C(c2ccc(OC)cc2)C2=C(CC(C)(C)CC2=O)N1 (configuration not stated) | · | 2.75e-08 | · | i | i
CN(C)S(=O)(=O)n1cnc(-c2ccccc2)c1-c1ccccc1 | ? | 4.9e-09 | 0.5% | i | i
CC1(C)CC2CC(C)(CN2C(=O)COC(=O)c2n[nH]c(=O)c3ccccc23)C1 (configuration not stated) | 7.0% | 7.4e-09 | -1.0% | i | i
N#CCSc1ncnc2sc3c(c12)CCC3 | 28.1% | 1.42e-08 | 1.7% | i | i
COc1ccc(N2CCN(C(=O)c3ccc(NS(=O)(=O)c4ccc(F)cc4)cc3)CC2)cc1 | -9.0% | 5.53e-08 | 1.2% | i | i
O=C(Nc1ccccc1)c1cc(N2CCOCC2)nc2ccccc12 | · | 1.3e-09 | · | i | i
COc1ccc(C(=O)OCC(=O)NCc2ccco2)cc1OC | -3.7% | 1e-09 | -1.4% | i | i
CS(=O)(=O)N1CCC2(CCCN(Cc3ccc(C#N)cc3)C2)CC1 | ? | 1e-09 | 0.3% | i | i
OCCCNC(c1ccccc1)c1ccc(O)cc1 (configuration not stated) | 10.3% | 1.63e-08 | 2.8% | i | i
CC(C)c1ccc(NC(=O)c2csnn2)cc1 | -5.3% | 2.55e-08 | -2.7% | i | i
CCCCN1C(=O)CN(CCc2ccccc2)C(=O)C1c1ccc(OC)cc1 (configuration not stated) | · | 1e-09 | -1.4% | i | i
O=C(COc1ccccc1)N(Cc1ccco1)C1CCS(=O)(=O)C1 (configuration not stated) | -1.2% | 1e-09 | 0.8% | i | i
CC(=O)OCC(=O)[C@@]12OC(C)(C)O[C@@H]1C[C@H]1[C@@H]3C[C@H](F)C4=CC(=O)C=C[C@]4(C)[C@@]3(F)[C@@H](O)C[C@@]12C | · | 2.3e-09 | · | i | i
COc1cc(C(c2sc3nc(C)nn3c2O)N2CC(C)OC(C)C2)cc(OC)c1OC (configuration not stated) | -12.3% | · | -1.4% | · | ·
O=C(O)c1ccc(-n2nnnc2SCc2ccccc2F)cc1 | -1.6% | · | -1.2% | · | ·
Nc1nonc1-c1nc2ccccc2n1Cc1ccc(F)cc1 | ? | 1e-09 | 3.0% | i | i
CC(=O)c1c(C(C)=O)c(C)n(-c2nc(-c3cccs3)c(C)s2)c1C | ? | 1.35e-08 | 1.6% | i | i
CC(C)c1nc(NCC2CCCO2)c(C#N)c2c1COC(C)(C)C2 (configuration not stated) | · | 9.57e-08 | · | i | i
Cc1nc(C)c(C(=O)C2=C(O)C(=O)N(CCN3CCOCC3)C2c2cccs2)s1 (configuration not stated) | -3.2% | 3.01e-08 | 2.3% | i | i
Cc1ccc(NC(=O)C2CC(c3ccc(F)cc3)=NO2)cc1 (configuration not stated) | 9.0% | 1e-09 | -0.1% | i | i
COc1ccccc1NC(=O)c1cn(C)c(=O)c2cc(OC)c(OC)cc12 | -5.5%[11.4 µM] | 3.6e-09 | -0.6% | i | i
COc1ccccc1NC(=O)c1ccc(Br)o1 | 11.0% | 9.6e-09 | -0.3% | i | i
O=C(COc1ccc(S(=O)(=O)N2CCCCC2)cc1)NC1CCCCC1 | 8.7% | 8.28e-08 | -0.7% | i | i
CC(C)NC(=O)c1cc(=O)n(C)c(=O)n1C | 7.5% | 1e-09 | -3.0% | i | i
COC1(OC)C(=N/O)/C(=N\O)CCC1O (configuration not stated) | -1.8% | 1.91e-08 | 2.5% | i | i
N#CCCN(Cc1cccnc1)C(=O)Nc1cccc(Cl)c1 | 7.7% | 1.86e-08 | 0.3% | i | i
COCCNC(=O)C(c1cccs1)N(C(=O)Cn1nnc2ccccc21)c1ccc2c(c1)OCO2 (configuration not stated) | 1.1% | 1.56e-08 | -0.1% | i | i

Structures shown so far containing two or more sulfur atoms:
SMILES | TSHR agonist | A647 autofl | AID923 | A488 autofl | Resorufin autofl
COc1ccc(OC)c(NC(=O)C2CCN(S(=O)(=O)c3cccs3)CC2)c1 | 11.3% | 1e-09 | -0.3% | i | i
N#CCSc1ncnc2sc3c(c12)CCC3 | 28.1% | 1.42e-08 | 1.7% | i | i
CC(=O)c1c(C(C)=O)c(C)n(-c2nc(-c3cccs3)c(C)s2)c1C | ? | 1.35e-08 | 1.6% | i | i
Cc1nc(C)c(C(=O)C2=C(O)C(=O)N(CCN3CCOCC3)C2c2cccs2)s1 (configuration not stated) | -3.2% | 3.01e-08 | 2.3% | i | i

New compounds follow.
SMILES | TSHR agonist | A647 autofl | AID923 | A488 autofl | Resorufin autofl
Cc1ccccc1CN1CCN(CC(=O)NCc2ccccn2)C1=O | ? | · | -0.1% | · | ·
CCN1C(=O)N(CN2CCOCC2)C2C1N(CN1CCOCC1)C(=O)N2CC (configuration not stated) | -6.1% | 4e-09 | 0.8% | i | i
COc1cc(Br)cc(CN2CCN(C/C=C/c3ccccc3)CC2)c1O | · | 8.1e-09 | -0.5% | i | i
COc1cc(NC(=O)c2cc(C)on2)cc(OC)c1OC | -0.3% | 4.9e-09 | 0.4% | i | i
O=c1[nH]c(CN2CCc3ccccc32)nc2scc(-c3cccs3)c12 | 0.2%[11.4 µM] | 2.18e-08 | 5.4% | i | i
CCN(CC)CCCNC(=O)Cc1c(C(=O)O)n(C)c2ccccc12 | 2.8% | 7.1e-09 | 0.6% | i | i
COc1ccc(-c2cc(C(N)=O)nc(N3CCCCCC3)n2)cc1 | 14.8% | 3.58e-08 | -0.1% | i | i
CCOc1ccc(N(CC(=O)NC2CCCC2)S(=O)(=O)c2c(C)[nH]c(=O)[nH]c2=O)cc1 | 5.2% | · | -1.8% | · | ·
O=c1c2c3c(sc2nc2n1CCCC2)CCC3 | ? | · | 15.8% | · | ·
CC1(C)NC(=O)N(CCOc2ccc3c(c2)CCC3)C1=O | 2.1% | 3.31e-08 | 0.3% | i | i
C=COC(=O)CSc1snc(SCC(=O)OC)c1C#N | -6.4% | 1.13e-08 | 1.0% | i | i
CCCCC#CC1C=CC(Oc2ccc(C(=O)OC)cc2)C(COC(=O)OCC)O1 (configuration not stated) | 14.6%[11.4 µM] | · | 1.7%[11.5 µM] | · | ·
O=C(O)CCC(=O)Nc1ccc(-c2nnc(-c3ccco3)o2)cc1 | -6.6% | · | 0.3% | · | ·
COc1ccc(OCC(O)CNC(=O)c2ccc(Br)cc2)cc1 (configuration not stated) | 4.7% | 1e-09 | -0.6% | i | i
COc1ccccc1CN1CCCC2(CCN(C(=O)c3ccncc3)CC2)C1 | -3.6% | 1.6e-09 | 2.3% | i | i

Filtered by structure, the entries above containing an NH in an aromatic ring (three)
SMILES | TSHR agonist | A647 autofl | AID923 | A488 autofl | Resorufin autofl
CC1(C)CC2CC(C)(CN2C(=O)COC(=O)c2n[nH]c(=O)c3ccccc23)C1 (configuration not stated) | 7.0% | 7.4e-09 | -1.0% | i | i
O=c1[nH]c(CN2CCc3ccccc32)nc2scc(-c3cccs3)c12 | 0.2%[11.4 µM] | 2.18e-08 | 5.4% | i | i
CCOc1ccc(N(CC(=O)NC2CCCC2)S(=O)(=O)c2c(C)[nH]c(=O)[nH]c2=O)cc1 | 5.2% | · | -1.8% | · | ·

More structures
SMILES | TSHR agonist | A647 autofl | AID923 | A488 autofl | Resorufin autofl
COc1cccc(NC(=O)NC2CCN(Cc3nnnn3Cc3ccc(F)cc3)CC2)c1 | -2.9% | 1e-09 | 0.0% | i | i
CSc1ccccc1N=CC1=C(O)CC(C)(C)CC1=O | 24.8% | · | 1.0% | · | ·
CCCCNC(=O)CS(=O)Cc1nc(-c2ccc(C)cc2)oc1C (configuration not stated) | ? | · | 0.6% | · | ·
COC(=O)c1[nH]c2cccc(OC)c2c1NC(=O)CN1CCC(C(N)=O)(N2CCCCC2)CC1 | -0.5% | 8.5e-09 | -0.8% | i | i
COc1ccc(CNc2nc(-c3ccccc3CN(C)C)nc3ccccc23)c(OC)c1 | ? | 1e-09 | -1.0% | i | i
CC1CCC(N2CCN(c3ncccn3)CC2)CC1 (configuration not stated) | 7.6% | 4.2e-09 | 2.2% | i | i
O=C1[C@@H]2[C@H]3[C@H](O)[C@H](O)C/C(=N/OC[C@@H](O)COCc4ccco4)[C@H]3CC[C@H]2C(=O)N1c1ccc(F)cc1F | -1.5%[11.4 µM] | · | -1.6%[11.5 µM] | · | ·
Cc1cc(C)n(-c2nc3sc4c(c3c3nnc(SC(C)C)n23)CC(C)(C)OC4)n1 | 27.4% | 1.76e-08 | 3.2% | i | i
O=C(Cn1ccc2ccccc2c1=O)Nc1ccc2c(c1)OCO2 | -0.7%[11.4 µM] | 1e-09 | -0.8% | i | i
C=CCN1C(=O)C(O)=C(C(C)=O)C1c1ccccc1F (configuration not stated) | 7.7%[11.4 µM] | · | 0.3% | · | ·
CCc1nn(CC(=O)NCCCN(Cc2ccccc2)C(C)C)c(=O)c2cc3sccc3n12 | -4.3% | 1.77e-08 | -2.1% | i | i
Cc1cc(C(F)F)n2nc(C(=O)O)nc2n1 | -0.2% | 1e-09 | -0.5% | i | i
Cc1nnc(SCCN2C(=O)c3ccccc3C2=O)[nH]c1=O | -1.1% | 1e-09 | -1.9% | i | i
Cc1ccc2cc(CN(Cc3ccco3)C(=O)NCc3ccccc3)c(=O)[nH]c2c1C | ? | 1e-09 | 0.7% | i | i
O=C(CSc1nc(-c2ccccc2Cl)ns1)NCc1ccco1 | 3.3% | 1.37e-08 | -2.1% | i | i
CN=C(Nc1cc(C)nn1-c1ccccc1)c1ccccc1 | · | 1e-09 | 1.2% | i | i
O=C(Nc1ccc(NC(=O)C2CC2)nc1)c1cccs1 | 1.3% | 2.83e-08 | 0.9% | i | i
CC(=O)N1CCC2(CC1)CCN(c1ccccn1)CC2 | 0.9% | 6e-09 | 2.7% | i | i
O=C(c1coc2ccccc2c1=O)N1CCN(c2cccc(C(F)(F)F)c2)CC1 | 5.6% | 2.7e-09 | 0.1% | i | i
COC(=O)c1nnn(-c2nonc2N)c1CSc1ccccn1 | ? | 2.92e-08 | 1.0% | i | i
Nc1nc(Sc2ccc([N+](=O)[O-])c3nonc23)c2[nH]cnc2n1 | -5.0%[11.4 µM] | 1e-09 | -5.7%[11.5 µM] | i | i
C=C(C)COc1ccc(-c2[nH]ncc2-c2ccccc2OC)c(O)c1 | 13.8% | 3.23e-08 | 3.4% | i | i
CC(NS(=O)(=O)c1ccc(Br)cc1)C(c1cccs1)N1CCN(C)CC1 (configuration not stated) | 19.3% | · | -0.3% | · | ·
CCN1CCN(c2oc(-c3ccc(OC)cc3)nc2C#N)CC1 | 3.8% | 5.9e-09 | -1.5% | i | i
O=C(Cn1c(CO)nc2ccccc21)Nc1cc(C(F)(F)F)ccc1N1CCOCC1 | 4.9% | 4.04e-08 | -1.0% | i | i
c1cncc(C(c2nnnn2C2CCCC2)N2CCN(Cc3ccc4c(c3)OCO4)CC2)c1 (configuration not stated) | ? | 2.96e-08 | -0.1% | i | i
Cn1c(=O)c2c(nc(NCc3ccco3)n2Cc2ccccc2Cl)n(C)c1=O | · | 9.74e-08 | · | i | i
CCOC(=O)Cc1[nH]nc2c1C(c1cc(OC)ccc1OC)C(C#N)=C(N)O2 (configuration not stated) | · | 8.3e-09 | · | i | i
O=C(NCCN1CCN(c2ccccc2F)CC1)C1CCCN(S(=O)(=O)c2cnc[nH]2)C1 (configuration not stated) | -6.7% | · | 1.6% | · | ·
Cc1ccc(N2CCN(C(=S)c3ccc(N(C)C)cc3)CC2)cc1 | -10.7% | 3.8e-09 | -0.7% | i | i
C#CCCCO/N=C1/C[C@@H](O)[C@@H](O)[C@@H]2[C@@H]3C(=O)N(Cc4ccc5c(c4)OCO5)C(=O)[C@H]3CC[C@H]12 | -7.3%[11.4 µM] | · | 3.3%[11.5 µM] | · | ·

Screening results deposited in PubChem by National Center for Advancing Translational Sciences (NCATS).
